High-throughput results from PubChem.
Bfl-1 A1 inh = inhibitors of the anti-apoptotic protein A1, read as caspase activation | 330,000 compounds, 0.066% hits | caspase activation, % (no concentration beside the values) | MEF A1-2A-BIM cells, Caspase-Glo 3/7 luminescence, 3 h; percent of clofoctol response, vehicle zero;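 active = over half of replicate activation scores above 10%, or exactly half above 10 with the replicate mean above 10; inconclusive = replicate mean below 10 yet half the replicates above 10; inactive = over half of replicates below 10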;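 note: wells of about 30 µL received 50 nL stock; many hits fall short of the cut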
Calb FLC = affects C. albicans growth with fluconazole | C. albicans CaCi-2 (fluconazole-resistant clinical isolate) + fluconazole, Alamar Blue growth, 48 h | growth inhibition, % (concentration not given with the values) | 300,000 compounds, 0.57% hits | AID 1979;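 active = most replicates above 75%; inconclusive = exactly half above 75%; inactive = most below 75%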;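 note: all wells also contain fluconazole at 8 µg/ml as a sub-toxic cotreatment; 0% = median of DMSO wells and 100% = median of geldanamycin control wells; wells of about 8 µL received 7.5 nL stock; the first replicate is given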
Ecoli rRNA inh = inhibits bacterial ribosomal RNA function over humanized ribosomes; 350,000 compounds, 1.6% hits; E. coli WT GFP vs humanized-ribosome RFP mutants, fluorescence, 24 h; stronger effect = lower value; DMSO median 0, no signal -100; GFP signal change (wild-type ribosome), % (test concentration not listed);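 active = significant combined selectivity score with lowered wild-type GFP, culture density cut under 30%, mutant RFP and density less affected; inactive = any of these conditions unmet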; note: one replicate is shown; some compounds called inactive have numbers as strong as hits
Beta cell apopt = beta cell apoptosis inhibition; INS-1E cytokine-induced death, ATP luminescence, 48 h; percent of positive-control rescue, neutral wells zero; protection from apoptosis, % (no concentration beside the values); 300,000 compounds, 0.8% hits; AID 435005;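 active = all replicates at 75% or more, or half of them and the mean; inconclusive = half reach 75% but not the mean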;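 note: 0% = cytokine-treated negative control wells and 100% = positive control rescue; higher means more ATP so stronger rescue from cytokine killing; wells of about 40 µL received 100 nL stock; the first replicate is given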
T cruzi repl = T. cruzi replication inhibition; 300,000 compounds, 1.4% hits; T. cruzi beta-gal in NIH3T3, luminescence, 90 h; inhibition, % (no concentration beside the values);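 active = mean inhibition across valid replicates above about 55%, limit read from the data; inconclusive = mean below that limit but half or more replicates reach it; inactive = mean below it, under half of replicates reach it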;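 note: signal also drops with host cell toxicity which is not excluded here; 0% = plate median of DMSO wells and 100% = zero luminescence signal; higher percent means less beta-gal luminescence so fewer parasites; stock transfer was 50 nL into about 50 µL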
AF4-AF9 inh = blocks AF4 peptide binding to human AF9; AlphaScreen, biotin-AF4 peptide binding to FLAG-AF9; inhibition, % at 10 µM; 350,000 compounds, 0.47% hits;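 active = every replicate reaching a set inhibition limit, whatever the replicate mean, cut at about 25% in these data; inconclusive = mean inhibition reaches that limit but some replicates miss it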;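 note: 0% = plate neutral control median and 100% = total signal loss; the record names both 10 and 1 µM as test concentration; the first replicate is given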
Target sequence (P42568 whole entry, looked up): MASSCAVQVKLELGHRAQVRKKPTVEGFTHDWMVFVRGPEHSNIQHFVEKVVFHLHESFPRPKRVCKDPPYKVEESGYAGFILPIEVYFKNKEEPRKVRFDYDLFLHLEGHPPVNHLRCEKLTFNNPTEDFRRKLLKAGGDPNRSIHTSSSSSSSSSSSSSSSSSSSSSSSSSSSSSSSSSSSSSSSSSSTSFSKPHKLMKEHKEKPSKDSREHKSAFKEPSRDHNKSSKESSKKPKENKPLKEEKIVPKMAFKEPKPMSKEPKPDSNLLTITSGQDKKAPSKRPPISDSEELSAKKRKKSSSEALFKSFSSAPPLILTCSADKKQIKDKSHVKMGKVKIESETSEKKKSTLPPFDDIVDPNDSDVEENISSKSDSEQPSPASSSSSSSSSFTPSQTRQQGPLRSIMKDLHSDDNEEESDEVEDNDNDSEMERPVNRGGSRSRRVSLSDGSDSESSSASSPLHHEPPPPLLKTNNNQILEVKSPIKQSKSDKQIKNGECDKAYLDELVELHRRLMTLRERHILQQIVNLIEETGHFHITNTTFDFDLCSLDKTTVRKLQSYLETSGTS
RanGTP-Imp inh = disruptors of Ran-importin-beta complex formation – biochemical, FRET, CFP-Ran, YFP-importin-beta, homogeneous, primary screen; cell-free CFP-Ran/YFP-importin-beta FRET ratio; 300,000 compounds, 1.1% hits; AID 2216; inhibition, % (no concentration beside the values);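 active = most replicates above 15%; inconclusive = exactly half above 15%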;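 note: 0% = DMSO wells and 100% = Ran loaded with GDP instead of GTP; wells of about 40 µL received 100 nL stock; the first replicate is given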
Vif A3G = HIV-1 Vif–A3G interaction blockers – biochemical, TR-FRET, GST-Vif 1-94, biotin-A3G peptide, dose response retest, primary screen (AID 1117319); TR-FRET GST-Vif / biotin-A3G peptide binding; higher % means a stronger effect; test concentration not given here; strong numbers were not always called active; inhibition, %; hits with a dose series show IC50 in µM; 260,000 compounds, 0.57% hits;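 active = above the screen mean plus three standard deviations and confirmed in dose response; inconclusive = results disagree or hit not tested in dose response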;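 note: Vif residues 1-94 fused to GST binding biotinylated APOBEC3G peptide 110-148; 0% = full assay without inhibitor and 100% = GST in place of GST-Vif; retest series ran down from 100 µM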
Ecoli rRNA inh OD600 = second read-out of Ecoli rRNA inh, no call of its own (marks repeat the call); OD600 change, %; measured here: OD600 growth;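 optical density of the mix in the first replicate; 0 = DMSO median and -100 = no signal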
Ecoli rRNA inh RFP = also measured in Ecoli rRNA inh; calls as there; RFP signal change, %; measured here: RFP humanized mutant strains;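 first replicate; 0 = DMSO median and -100 = no signal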
* = called active by the depositor; ? = inconclusive; / = no result given; & = joins results of further samples. These rows are one share of the data; the hit share may differ from the screen's.

SMILES	Bfl-1 A1 inh	Calb FLC	Ecoli rRNA inh	Ecoli rRNA inh OD600	Ecoli rRNA inh RFP	Beta cell apopt	T cruzi repl	AF4-AF9 inh	RanGTP-Imp inh	Vif A3G
CCn1c(=NC(=O)C2COc3ccccc3O2)sc2c(OC)ccc(OC)c21 (centres undefined)	-1.3	-5	5	-2	-9.3	7	26	-18	-1.6	-3%
Cc1cc(NS(=O)(=O)c2ccc(NC(=O)c3ccc(F)cc3)cc2)nc(C)n1	0.3	/	12	11	-0.2	2	/	0.5	/	/
CCCc1nnc(N2C(=O)c3cccc4cccc(c34)C2=O)s1	0.7	-2	/	/	/	-5	-7	/	0.9	8%
Cc1csc(SCC(=O)Nc2sc3c(c2C#N)CCC3)n1	-0.6	14	/	/	/	-1	17	/	-2.1	23%
COc1cc(NC(=O)C2CCC(CNc3c(N4CCCCC4)c(=O)c3=O)CC2)cc(OC)c1 (centres undefined)	-0.3	-6	-4	10	-3.7	3	-6	6.9	?	0%
CC(C(=O)NC1C(=O)N2C(C(=O)O)=C(CSc3nnnn3C)CSC12)n1cc(Br)cn1 (centres undefined)	0.1	7	23	20	-2.9	-8	-9	-7.0	1.0	26%
O=C(COC(=O)Cc1ccc(F)cc1)NCc1ccco1	0.9	47	9	5	-1.3	4	-5	-2.7	0.7	-15%
CCCCn1c(-c2c(Cl)c(C)nn2C)n[nH]c1=S	1.1	-5	6	-3	-2.5	4	-6	-7.8	0.9	2%
COc1ccc(CN(C)C(=O)c2ccc3c(=O)n4c(nc3c2)CCC4)c(OC)c1	1.0	-4	5	9	-1.2	2	-3	18	/	-4%
CC(c1nnc(SCC(=O)Nc2cc([N+](=O)[O-])ccc2F)n1Cc1ccccc1)N(C)C (centres undefined)	-0.2	1	-9	3	-0.7	2	0	4.7	-2.0	/
O=C(/C=C/c1ccc(F)cc1)Nc1nc2ccccc2[nH]1	-5.1	0	/	/	/	7	6	/	-3.0	7%
Cc1cc(-n2nc3ccccc3n2)c(O)c([N+](=O)[O-])c1	-0.1	44	4	9	-0.5	-1	-9	-0.2	-11	/
CCCCn1c(SCC(=O)Nc2ccc3c(c2)CCC3)nc2ccccc2c1=O	0.4	0	7	11	-1.5	-1	14	-5.3	-1.0	-19%
COc1cc(S(=O)(=O)n2ccc(C)n2)c(OC)cc1Cl	-1.3	22	/	/	/	-4	-1	/	0.0	0%
Cc1ccccc1NC(=O)CN1C(=O)S/C(=C/c2cccnc2)C1=O	-0.5	-12	9	18	-0.2	-5	-4	-4.7	-2.6	0%
COc1ccc([C@H]2CC(=O)C=C(c3cccc(Cl)c3O)C2)cc1OC	-1.0	/	-22	-34	-11	3	/	0.4	/	/
CCOC(=O)Cn1c(C(C)=O)nc2ccccc21	-0.2	-5	6	5	0.2	1	-11	-2.2	2.1	14%
COc1ccccc1Nc1ccc(S(=O)(=O)N2CCCCC2)cc1[N+](=O)[O-]	0.6	1	3	-4	-1.3	9	36	9.2	0.0	2%
CCOC(=O)N1CCN(C(=O)c2ccc(CS(=O)Cc3ccccc3Cl)o2)CC1 (centres undefined)	0.9	-19	1	-4	-4.9	-1	8	-1.5	-0.9	-9%
CCN(CC)C(=O)c1ccc2c(=O)n(CCOC)c(=S)[nH]c2c1	-0.6	10	/	/	/	1	-17	/	-3.6	0%
COc1ccccc1C(=O)N1CCN(C(=O)c2oc3ccc(C)cc3c2C)CC1	0.7	-5	-6	-23	-1.3	0	-6	-2.4	1.0	/
O=C(NCc1ccccc1Cl)c1ccc(CSc2nc3ccncc3[nH]2)cc1	0.5	-2	-7	-10	-7.4	3	5	0.0	0.0	2%
COc1ccc(NCc2nnc(SCC(=O)Nc3cc(C(F)(F)F)ccc3Cl)o2)cc1	1.4	-7	/	/	/	-7	-2	/	5.3	-1%
Cc1c(-c2ccccc2)n[nH]c1C(=O)NN	-0.7	11	9	1	3.9	-4	-5	-2.0	3.0	7%
COC(=O)/C=C1\N/C(=N/c2nc(C)c3cc(OC)ccc3n2)NC1=O	0.9	2	/	/	/	26	19	/	2.1	/
O=C(COC(=O)c1ccccc1-n1cnnn1)c1ccccc1	-0.1	9	1	4	-1.0	5	-4	-0.5	1.7	-6%
Cc1cccn2cc(CCNS(=O)(=O)c3cccs3)nc12	1.0	-3	-3	0	-1.6	8	2	6.0	-4.9	9%
O=C(CCSc1ccc(F)cc1)NNC(=O)c1ccccc1Cl	-2.0	/	5	1	1.1	-3	/	-1.2	/	-5%
COc1ccc2[nH]c(=O)c(CN(CCCN(C)C)C(=O)Nc3ccccc3)cc2c1	0.0	3	/	/	/	-1	5	/	-3.0	?
O=C(CCc1ccc(S(=O)(=O)N2CCOCC2)cc1)N/N=C/c1ccc(O)c(O)c1O	-0.2	-10	/	/	/	-10	2	/	?	?
Cc1ccc(C(=O)N2CCN(Cc3nc4sc5c(c4c(=O)[nH]3)CCCC5)CC2)cc1	-0.7	-5	5	1	1.5	7	-4	-0.6	4.7	/
O=C(NC1CCCC1)C(c1ccsc1)N(Cc1ccccc1)C(=O)Cc1cccs1 (centres undefined)	0.2	-4	/	/	/	-35	15	/	-1.6	?
Nc1cc(=O)[nH]c(SCC(=O)Nc2ccccc2Sc2ccc(Cl)cc2)n1	0.6	21	-8	-7	-9.5	5	6	-0.3	1.4	0%
COc1cc(C(=O)NCC(=O)Nc2c(C)cccc2C)ccc1OCc1ccccc1	-0.2	/	-7	-8	1.9	1	/	-8.6	/	/
COc1cccc(C(=O)Nc2cccc(-c3nnc(-c4ccco4)o3)c2)c1	-0.4	55	/	/	/	1	-2	/	-1.9	-4%
Cc1cc2c(c(=O)n1Cc1ccccn1)C(c1ccc3c(c1)OCO3)C(C#N)=C(N)O2 (centres undefined)	1.3	-8	/	/	/	0	14	/	0.5	4%
COc1cccc(C(=O)NC2CC3CCCC(C2)N3CC(=O)Nc2ccc(N(C)C)cc2)c1 (centres undefined)	0.2	6	/	/	/	-1	21	/	-2.0	16%
CCCCCn1cnc2sc(-c3ccccc3)cc2c1=O	-2.0	-7	/	/	/	3	15	/	-3.6	14%
COc1cccc(-c2nnc(SCc3cccnc3)o2)c1	-3.5	8	/	/	/	-6	43	/	-1.3	26%
COc1ccc([C@@H]2C(C#N)=C(N)S[C@@H](c3ccccc3)[C@@H]2[N+](=O)[O-])cc1	0.9	2	/	/	/	-5	14	/	-0.8	-3%
CN(c1ccc(C(=O)NCc2ccco2)cc1)S(C)(=O)=O	0.6	-36	/	/	/	-4	-7	/	4.2	4%
CC(C)N(CC#CCC(O)(c1ccccc1)c1ccccc1)CCO	/	-1	-2	3	0.8	/	10	-1.0	3.1	/
CCC(C)NC(=O)Nc1ccccc1F (centres undefined)	-0.3	-16	/	/	/	1	-6	/	?	-6%
COC(=O)C1C(O)CCC2CN3CCc4c([nH]c5ccccc45)C3CC21 (centres undefined)	-0.2	2	10	12	2.6	/	-9	2.6	65*	/
COc1cccc(-c2csc(N3CCN(C(=O)Nc4ccc(F)cc4)CC3)n2)c1	-0.8	-3	/	/	/	13	19	/	-2.4	3%
CC(=O)NC(=S)Nc1ccc(S(=O)(=O)N(C)Cc2ccccc2)cc1	-0.7	0	-33	-29	-3.0	2	68*	0.0	-1.1	-11%
COC(=O)c1c(NC(=O)Cn2cnc([N+](=O)[O-])n2)sc2c1CCC(C)C2 (centres undefined)	-0.1	-1	/	/	/	0	58*	/	-0.6	-1%
Cc1ccc(C(=O)N/C(=C\c2ccco2)C(=O)N2CCSCC2)cc1C	0.7	18	3	2	-0.7	-7	-9	1.3	?	/
Cc1ccc(S(=O)(=O)NCCCN(C)C)cc1	1.4	2	/	/	/	2	-9	/	?	21%
O=C(C1=C[C@H](C2CCCCC2)C[C@H](OCc2ccc(CO)cc2)O1)N1CCN(Cc2ccccc2)CC1	-0.1	4	-2	-8	17	3	31	5.2&4.4	3.3	5%
COc1ccc(NC(=O)Cn2ncn3c(cc4ccccc43)c2=O)c(OC)c1OC	?	-29	3	3	0.9	4	20	0.0	-2.9	-2%
CSc1ccc(/C=C/C(=O)OCC(=O)N2CCN(S(=O)(=O)c3ccc(C)cc3C)CC2)cc1	-0.9	/	1	-1	4.3	0	/	-6.3	/	-1%

Compounds shown so far containing two or more sulfur atoms, in the order listed:
SMILES	Bfl-1 A1 inh	Calb FLC	Ecoli rRNA inh	Ecoli rRNA inh OD600	Ecoli rRNA inh RFP	Beta cell apopt	T cruzi repl	AF4-AF9 inh	RanGTP-Imp inh	Vif A3G
Cc1csc(SCC(=O)Nc2sc3c(c2C#N)CCC3)n1	-0.6	14	/	/	/	-1	17	/	-2.1	23%
CC(C(=O)NC1C(=O)N2C(C(=O)O)=C(CSc3nnnn3C)CSC12)n1cc(Br)cn1 (centres undefined)	0.1	7	23	20	-2.9	-8	-9	-7.0	1.0	26%
Cc1cccn2cc(CCNS(=O)(=O)c3cccs3)nc12	1.0	-3	-3	0	-1.6	8	2	6.0	-4.9	9%
O=C(NC1CCCC1)C(c1ccsc1)N(Cc1ccccc1)C(=O)Cc1cccs1 (centres undefined)	0.2	-4	/	/	/	-35	15	/	-1.6	?
Nc1cc(=O)[nH]c(SCC(=O)Nc2ccccc2Sc2ccc(Cl)cc2)n1	0.6	21	-8	-7	-9.5	5	6	-0.3	1.4	0%
CC(=O)NC(=S)Nc1ccc(S(=O)(=O)N(C)Cc2ccccc2)cc1	-0.7	0	-33	-29	-3.0	2	68*	0.0	-1.1	-11%
CSc1ccc(/C=C/C(=O)OCC(=O)N2CCN(S(=O)(=O)c3ccc(C)cc3C)CC2)cc1	-0.9	/	1	-1	4.3	0	/	-6.3	/	-1%
